PINK1 modulator: PINK1 expression modulation; Potency, µM (top dose mostly 76.6 µM), for the others: top-dose activation (PINK1 increase), most hits filed as activators; 410,000 compounds, 0.2% hits; PINK1 immunofluorescence, high-content cytometry, 24 h; active = well fitted activation curve with a large enough effect; inconclusive = small, poorly fitted or top-dose-only effect; inactive = flat fitted curve, though single readings scatter; cell line not stated here;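 also: potency is read from the fitted curve at half-maximal effect; % of control where 0% means no effect; nearly all actives have a fitted effect of over 65% in size; a mitochondrial uncoupler was the plate control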
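PINK1 protein, normally rapidly degraded, was detected by immunofluorescence after 24 hour compound treatment of a stable cell line. Titration data (5 concentrations) came from laser-scanning cytometry, with CCCP-treated wells as controls.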
ClpP mod: qHTS Assay for Activators of ClpP; ATP-dependent Clp protease proteolytic subunit (Bacillus subtilis (strain 168)), P80244; purified B. subtilis ClpP, FRET peptide cleavage, 20 min; Potency, µM (series often up to 57.5 µM), for inactives: top-dose activity change, negative = active; 340,000 compounds, 1.9% hits; active = well fitted falling curve with a large enough effect; inconclusive = small, poorly fitted or top-dose-only effect; inactive = no such curve, though single readings can be large or run the other way; also: potency is read from the fitted curve at half-maximal effect; the source files actives as falling curves though it sought activators and does not explain the sign; nearly all actives have a fitted effect of over 65% in size; many hits overshoot -100%
Target sequence (P80244 whole entry, looked up): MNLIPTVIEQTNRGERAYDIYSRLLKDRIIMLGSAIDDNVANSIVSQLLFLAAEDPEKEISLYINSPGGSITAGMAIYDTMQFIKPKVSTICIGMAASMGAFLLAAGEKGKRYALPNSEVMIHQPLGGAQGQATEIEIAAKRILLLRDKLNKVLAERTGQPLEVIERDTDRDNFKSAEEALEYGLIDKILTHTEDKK
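FRET quenching reversal measured ClpP activation: 10 microg/mL B. subtilis ClpP at pH 8 with the FRET-FV decapeptide, read at 430 nm after 320 nm excitation. The 20-min minus 0-min signal was scaled between DMSO/no-enzyme wells and ADEP (5.8 microM final).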
TRPV1 PAM: enhances activation of the human vanilloid receptor TRPV1. Q8NER1. AID 540277. TRPV1-expressing cells, Fluo-8 calcium influx, capsaicin EC20 potentiation; host cell line not named in the record; control for the full effect not named in the record. potentiation, % at 8.33 µM. 320,000 compounds, 0.02% hits; active means potentiation above 80%; inconclusive means 30% to 80%; inactive means below 30%; also: 0% is about no effect
Target sequence (Q8NER1 whole entry, looked up): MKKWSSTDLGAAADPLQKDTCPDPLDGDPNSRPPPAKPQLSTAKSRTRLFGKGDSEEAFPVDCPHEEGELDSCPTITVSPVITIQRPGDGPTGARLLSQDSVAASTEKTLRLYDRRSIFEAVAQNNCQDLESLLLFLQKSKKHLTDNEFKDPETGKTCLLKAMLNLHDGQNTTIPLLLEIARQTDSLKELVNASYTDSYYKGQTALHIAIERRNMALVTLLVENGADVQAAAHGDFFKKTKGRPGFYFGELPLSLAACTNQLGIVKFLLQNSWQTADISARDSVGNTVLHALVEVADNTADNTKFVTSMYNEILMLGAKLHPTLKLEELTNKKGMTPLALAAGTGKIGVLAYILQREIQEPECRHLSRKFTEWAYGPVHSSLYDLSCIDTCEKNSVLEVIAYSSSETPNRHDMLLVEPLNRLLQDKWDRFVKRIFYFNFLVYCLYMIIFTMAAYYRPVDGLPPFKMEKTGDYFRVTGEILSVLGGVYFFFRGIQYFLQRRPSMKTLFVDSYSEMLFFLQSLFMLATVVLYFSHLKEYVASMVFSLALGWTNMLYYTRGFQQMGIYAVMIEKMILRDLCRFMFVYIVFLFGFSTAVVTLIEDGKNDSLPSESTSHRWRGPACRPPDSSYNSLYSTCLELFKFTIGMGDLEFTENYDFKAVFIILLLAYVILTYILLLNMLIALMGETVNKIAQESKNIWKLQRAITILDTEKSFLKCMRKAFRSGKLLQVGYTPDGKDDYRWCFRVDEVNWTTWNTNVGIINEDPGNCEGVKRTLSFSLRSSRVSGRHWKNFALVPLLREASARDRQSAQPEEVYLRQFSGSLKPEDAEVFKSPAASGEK
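Cells expressing TRPV1 were dye-loaded with Fluo-8 and read kinetically: 10 s baseline, 3 min after compound (agonist portion), then 2 min after EC20 capsaicin (allosteric enhancer portion). Calcium-bound dye fluorescence at 480/520 nm.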
Sfp PPTase inh: Sfp phosphopantetheinyl transferase inhibition; Q9F4F7; Biochemical Sfp PPTase activity, qHTS; Potency, µM, inactives show max response, negative = inhibition, hits mostly inhibitors; 310,000 compounds, 3.5% hits; AID 1490; active = well fitted inhibition curve with a large enough effect; inconclusive = small, poorly fitted or top-dose-only effect, or another doubt; inactive = no such curve, though single readings can be large or run the other way;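 also: the enzyme is Sfp with the accession as filed and its product quenches rhodamine fluorescence; potency is read from the fitted curve at half-maximal effect; 0% = enzyme reaction without inhibitor and -100% = no enzyme wells; top concentration of the series not given in the record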
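Compounds were incubated with enzyme (final 15 nM) for 15 min at room temperature before substrate addition started the reaction. Fluorescence at 525 nm excitation, 598 nm emission was recorded immediately and after 30 minutes.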
TRPML1 agonist: activates the human TRPML1 channel; TRPML1-expressing cells, Ca2+ dye fluorescence, FDSS; host cell line not named in the record; reference of the full effect not given here; activation, % (test concentration not listed); 410,000 compounds, 0.12% hits; AID 624414; Q9GZU1; in the data active = activation above about 50%; inconclusive = about 30% to 50%; inactive = below about 30%; also: 0% is about no effect; the text of the record puts the active cut at 80%
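Agonist activity was taken from a 110 s kinetic Ca2+ dye read on the FDSS after pinning compounds onto TRPML1-DL cells. The cells were seeded at 1,500/well with Tet inducer, incubated about 16 h, then dye-loaded at room temperature.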
TRPML1 inh: human mucolipin-1 channel inhibition | Q9GZU1 | TRPML1-inducible cells, Ca2+ dye fluorescence, FDSS; stronger effect = lower value; inhibition of EC80 agonist-evoked calcium signal | activity change, negative = inhibition, % (test concentration not listed) | 390,000 compounds, 0.02% hits | AID 624415; in the data active means activity change below about -50%; inconclusive means about -30% to -50%; inactive means above about -30%;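 also: stimulus is agonist 54-4 at its EC80 concentration; % is scaled to controls: 0 for no effect and ±100 for the full control effect; compound concentration not given in the record; the text of the record puts the active cut at -80%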
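Tet-induced TRPML1-DL cells loaded with Ca8 no-wash calcium dye were read kinetically on FDSS. Compound addition was followed by EC80 agonist 54-4 (4 uM final); inhibition was read over 110 s.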
Menin-MLL FL inh: menin-MLL binding inhibition, fluorescein peptide | FP activity change, % at 61.4 µM | Fluorescence polarization, fluorescein-MLL peptide displacement from menin | 290,000 tested, under 10 active; inconclusive = falling polarisation curve, or a change in total fluorescence; inactive = total fluorescence flat and polarisation flat or rising; no compound was filed as active; the % refers to the polarisation; negative = inhibition;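 also: % of control where 0% means no effect; inhibitors lower the polarisation; unlabelled MLL peptide was the positive control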
Starred values were filed as active, the others as inactive; ? = inconclusive; . = not tested or not shown; & = joins results of further samples; [ ] = remark or other dose.

SMILES	PINK1 modulator	ClpP mod	TRPV1 PAM	Sfp PPTase inh	TRPML1 agonist	TRPML1 inh	Menin-MLL FL inh
O=C(N/N=C/c1cccnc1)c1ccc(NC(=O)c2ccc(Cl)cc2)cc1	6.2%	-4.0%	-8	3%	-1.1	15	1.0
O=[N+]([O-])c1ccc(NCCNS(=O)(=O)c2ccccc2)c(C(F)(F)F)c1	7.5%	-5.3%	-8	-5%	8.0	48	4.4
CCc1ccc(-c2nc(-c3ccncc3)no2)cc1	1.9%	-9.9%	-18	-7%	1.3	42	-4.3
Cc1ccc(OCc2nc(-c3ccc(-n4cccc4)cc3)no2)cc1C	0.6%	-4.0%	-6	19%	-0.6	7	0.7
NC(=O)CC1NC(=O)c2cc([N+](=O)[O-])cc(I)c2OCCC(C(N)=O)NC(=O)[C@@H]2CCCN2C1=O (some centres not stated)	-0.2%	-2.0%	6	30%	-0.2	-5	1.5
COc1ccc(C(=O)N2CCOC2CNC(=O)C(=O)NCc2ccc(C)cc2)cc1 (configuration not stated)	1.7%	0.7%	.	.	-1.0	2	.
Cc1cc2cc(CNC(=O)Cc3ccc([N+](=O)[O-])cc3)ccc2[nH]1	1.8%	0.4%	-7	15%	-0.3	-1	0.0
N#C/C(=C\c1ccc(-c2cccc([N+](=O)[O-])c2)o1)c1nnc(N2CCOCC2)n1-c1ccccc1	.	.	2	-19%	.	.	2.7
N#Cc1cnn2c(-c3cccc(C(F)(F)F)c3)ccnc12	-1.2%	?	14	3%	1.0	-22	2.4
CC(C)c1cccc(C(C)C)c1NC(=O)CN1CCCC1	-1.9%	.	16	0%	0.3	8	-4.0
CCn1cc(CNC(=O)c2ccc(C)s2)cn1	-0.9%	.	2	9%	-0.3	-6	3.4
CCCCc1cc(=O)oc2cc(C)cc(OCC(=O)Nc3ccccn3)c12	?	4.0%	-13	4%	-0.5	10	1.0
COc1ccccc1NS(=O)(=O)c1ccc(NN=C2CCCCC2)c([N+](=O)[O-])c1	11%	0.4%	17	-1%	-0.1	-6	3.4
Cc1cc(NC(=O)c2ccccc2Cl)ccc1NC(=O)c1ccccc1Cl	-0.7%	-0.5%	-3	0%	-0.3	-3	4.2
CCOC(=O)c1c(NC(=O)c2cc3ccccc3c(=O)o2)sc2c1CCCC2	0.2%	-0.9%	.	.	0.4	-5	.
COc1ccccc1Cc1c(-c2cccc(Cl)c2)nc2ccc(Br)cn12	9.0%	-8.8%	.	.	-0.4	-3	.
Cc1nc(C)c(-c2csc(Nc3ccc(C(=O)O)c(O)c3)n2)s1	-0.3%	?	3	?	-1.2	-2	5.0
CCOc1cc(C2C(C#N)=C(N)SC(N)=C2C#N)ccc1OCCN1CCOCC1	-3.0%[38.3 µM]	-4.5%	-10	-87%	0.6	-7	?
COc1cc(CNCc2cccnc2)ccc1OCC(=O)NC(C)(C)C	1.6%	-0.5%	3	0%	-0.3	2	2.9
FC(F)(F)c1ccccc1NC(=S)N1CCN(c2ncccn2)CC1	-1.0%	-2.8%	4	-2%	-0.9	16	0.1
COc1cc(NC(=O)CCS(=O)(=O)c2ccc3c(c2)n(C)c(=O)c(=O)n3C)cc(OC)c1	1.5%&-0.5%	0.6%&0.4%	-20	13%	-0.2&-0.3	4&3	-9.7
CC(c1c(O)c2ccccc2[nH]c1=O)C1(C)CCC(O)C(C)(C)O1 (configuration not stated)	0.4%	-25%	8	3%	-0.2	-5	-0.2
O=C(c1ccnc(Cl)c1)N1CCCC(Nc2ccc(F)cc2)C1 (configuration not stated)	1.6%	-1.3%	-6	-2%	0.2	-13	-6.1
CCOc1ccccc1C(=O)Oc1c(Sc2ccccc2)c(C)nn1C(C)(C)C	-0.4%	-4.6%	.	.	-0.4	-11	.
CCC(C)NC(=O)c1ccc(CSCc2ccc(Cl)cc2)o1 (configuration not stated)	0.2%	.	-6	9%	1.4	-2	3.2
Cc1cccc(S(=O)(=O)N(CC(=O)Nc2ccccc2C)Cc2ccco2)c1	-1.3%	-0.8%	-5	-7%	2.9	-5	-4.5
Cc1c(CCC(=O)O)c(=O)oc2cc3occ(-c4ccccc4)c3cc12	-1.1%	.	.	-21%	-0.3	-5	3.3
Cc1ccc[n+](CC(=O)Nc2ccc([N+](=O)[O-])cc2Cl)c1	-1.9%	0.7%	-11	4%	-0.7	24	-0.1
CC1CCCC(C)N1C(=O)CSc1nc2ncnc(N)c2[nH]1 (configuration not stated)	0.3%[38.3 µM]	-0.5%	-1	4%	1.3	-2	-2.6
Cc1cccc(C)c1NC(=O)CSc1n[nH]c(=O)n1C1CC1	1.3%	1.4%	.	.	0.0	-15	.
C[C@H](CO)N1C[C@H](C)[C@@H](CN(C)Cc2ccc(Oc3ccccc3)cc2)Oc2cc(Br)ccc2S1(=O)=O	?	-2.0%	.	.	0.0	-12	.
Nc1nc(N)c2sc3nc(C(F)(F)F)cc(C(F)(F)F)c3c2n1	-3.9%	1.3%	18	1%	2.0	-8	1.9
CC(C)(C)NC(=O)CN(C(=O)c1snc(C(=O)NC2CCCCC2)c1N)c1ccc(F)cc1	1.2%	.	-7	23%	4.2	3	-0.8
CCOCCCN(C(=O)Cn1nnc(-c2ccc(C)o2)n1)C(C(=O)NCC1CCCO1)c1ccc(F)cc1 (configuration not stated)	-0.6%	.	-3	-4%	0.1	-28	2.2
CCN1CCN(Cc2cc(=O)oc3ccc(C)cc23)CC1	0.7%	.	?	22%	0.7	1	2.7
CCOC(=O)C1(CC2CCCCO2)CCN(S(=O)(=O)c2cc(C)cs2)CC1 (configuration not stated)	-3.7%	-0.8%	-8	2%	-0.6	45	2.2
Nc1nc(-c2ccco2)nn1C(=O)c1ccc(Cl)cc1	1.9%	-8.7%	24	-10%	-1.2	27	0.7
O=C(CCCCl)Nc1nc(-c2ccc3c(c2)OCCO3)cs1	3.8%	.	-8	6%	1.7	3	5.8
Cc1cc(C)cc(CC(Cc2nc3ccccc3[nH]2)c2nc3ccccc3[nH]2)c1 (configuration not stated)	16µM*	-4.0%	3	-27%	0.9	37	0.7
O=C(C(=O)N1CCCC1CO)N1CCCC1CO (configuration not stated)	0.6%	.	2	-11%	-0.4	4	3.3
COc1ccc(NC(=O)CC2C(=O)N(c3ccc(F)cc3)C(=S)N2NC(=O)c2ccccc2)cc1 (configuration not stated)	2.2%	0.2%	0	11%	-0.2	-12	1.3
CCOC(=O)c1c(C)[nH]c(C(=O)OCC(=O)Nc2sccc2C(N)=O)c1C	-1.0%	-1.6%	25	.	0.1	3	.
COc1ccc2[nH]c(=S)cc(C)c2c1	-0.5%	-13%	11	40µM*	-0.7	0	1.6
COc1ccc(/C=C\c2onc(C)c2S(=O)(=O)N2CCC(C(=O)Nc3ccc(Cl)cc3)CC2)cc1	1.5%	-2.4%	.	.	0.4	4	.
COc1cccc(C(=O)Nc2ccccc2N2CCCC2)c1	-2.3%[38.3 µM]	-1.1%	.	3%	-0.8	-10	4.5
Cc1ccccc1NC(=O)CSc1nnc(-c2cccc(Cl)c2)o1	1.9%	-0.6%	.	.	0.5	1	.
Cc1cc(N)ccc1S(C)(=O)=O	0.3%	-0.5%	19	12%	-0.5	-4	6.3
COC(=O)C(Cc1ccccc1)N1CCS(=O)(=O)CC1 (configuration not stated)	-1.0%	-3.3%	-1	19%	-0.7	2	0.9
CCN(CC)c1ccc(/C=C(/C#N)C(=O)NCc2ccccc2)o1	32µM*	0.8%	-15	-7%	?	-17	?
Cc1ccc(-c2cc(-c3ccc4c(c3)NC(=O)CO4)nc3c2COc2ccc(C)cc2-3)cc1	-0.1%	-9.3%	.	.	-0.2	23	.

Record cards, as listed above. Order of screens: PINK1 modulator	ClpP mod	TRPV1 PAM	Sfp PPTase inh	TRPML1 agonist	TRPML1 inh	Menin-MLL FL inh
`N#Cc1cnn2c(-c3cccc(C(F)(F)F)c3)ccnc12` reads -1.2%	?	14	3%	1.0	-22	2.4
`Cc1cc2cc(CNC(=O)Cc3ccc([N+](=O)[O-])cc3)ccc2[nH]1` reads 1.8%	0.4%	-7	15%	-0.3	-1	0.0
`FC(F)(F)c1ccccc1NC(=S)N1CCN(c2ncccn2)CC1` reads -1.0%	-2.8%	4	-2%	-0.9	16	0.1

Next results.
SMILES	PINK1 modulator	ClpP mod	TRPV1 PAM	Sfp PPTase inh	TRPML1 agonist	TRPML1 inh	Menin-MLL FL inh
CCn1c(/C=C/c2ccccc2)nc2ccccc21	?	14µM*	2	2%	1.8	4	4.2
Cc1ccc(-n2c(SCC(=O)N3CCCc4ccccc43)nc3c([nH]c4ccccc43)c2=O)cc1	0.3%	-6.8%	.	.	0.8	?	.
CCC(C)NC(=O)N1c2ccccc2Sc2ccccc21 (configuration not stated)	3.0%	-1.6%	-12	-2%	0.1	1	2.5
O=C1CC2(CCCC2)CC(=O)N1c1ccccc1	0.9%	0.6%	-3	-1%	-0.3	-10	1.7
NC(=O)N/N=C/c1sc(N2CCCCC2)nc1-c1cccs1	0.3%	-8.3%	.	.	-0.4	11	.
COc1cc(C(=O)NC2CCN(C)CC2)ccc1Nc1ncc2c(n1)N(C1CCC(O)CC1)CCC(=O)N2C (configuration not stated)	4.0%	-6.5%	.	.	-0.5	5	.
Cc1nnc(NCC=Cc2ccccc2)s1	0.3%	-1.8%	.	.	-0.3	.	.
Cc1ccc(-c2nnc(Nc3cccc(O)c3)c3ccccc23)cc1S(=O)(=O)N1CCN(C)CC1	2.8%	-1.7%	.	.	-0.8	-6	.
COc1ccc(-c2c(C)oc3c(CN4CCOCC4)c(O)ccc3c2=O)cc1	0.2%	3.8%	-6	23%	.	.	-0.4
C(=N\n1cnnc1)/c1cn(Cc2ccccc2)c2ccccc12	-9.3%[38.3 µM]	-3.0%	?	0%	0.3	2	4.3
Cc1cccc(N2CCN(C(=O)c3ccc(CS(=O)Cc4cccc(Cl)c4)o3)CC2)c1C (configuration not stated)	0.8%	-1.2%	-12	-13%	1.5	11	1.3
CC1CN(S(=O)(=O)Cc2ccccc2)CC(C)O1 (configuration not stated)	1.4%[38.3 µM]	1.8%	6	19%	0.3	-1	2.3

Screens from PubChem.
